# Source: PubChem BioAssay (National Center for Advancing Translational Sciences (NCATS))
# Rango release inh: inhibitors of RanGTP-induced Rango-importin beta complex dissociation | Biochemical FRET Rango-importin beta, RanGTP-induced dissociation | Potency, µM (titrated, usually from 46.1 µM), without a hit: at the top dose activity change, negative = inhibition | hit rate 0.071% among 340,000; active means falling FRET ratio curve, often poorly fitted, with flat reads before Ran was added; inconclusive means other falling curves, or compound fluorescence or quenching; inactive means flat or rising ratio curve;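 note: potency is the fitted concentration of half-maximal effect; % of control where 0% means no effect; nearly all actives have a fitted effect of over 45% in size; -100% = wells without RanGTP and RCC1; the record marks most hits as doubtful in a second field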
#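 Recombinant Rango FRET biosensor (EYFP–snurportin 1 IBB–cerulean CFP10) at 0.1 uM premixed with 0.25 uM importin beta in PBS, 1 mM DTT, 0.02% Tween-20, 0.1% BSA. Compound added 5 min; RanGTP-RCC1 (0.6 uM Ran, 2 mM GTP, 0.2 uM RCC1) then triggers release, read at 45 min.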
# Rango-impB inh: prevents formation of the Rango-importin beta complex. Rango CFP/YFP FRET sensor + importin beta, 45 min. Potency, µM (highest dose often 92.2 µM), for the others: at the highest dose inhibition of complex formation. hit rate 0.031% among 340,000; active = rising FRET ratio curve, often small or poorly fitted; inconclusive = mostly compound fluorescence or quenching in the first reads; inactive = flat curves in all reads;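 note: potency is the fitted concentration of half-maximal effect; 0% = DMSO wells and 100% = buffer wells lacking importin beta; nearly all actives have a fitted effect of over 15% in size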
#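 Inhibition scored from the CFP 486 nm/YFP 530 nm FRET ratio 45 min after adding 0.125 microM importin beta to 50 nM Rango biosensor preincubated 5 min with compound (room temperature, PBS with DTT, Tween-20, BSA). No-importin wells as positive control.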
# GLA inh pH 4.5: blocks human alpha-galactosidase A at pH 4.5 | activity change, negative = inhibition, % at 105 µM | purified enzyme, 4-MU-alpha-Gal fluorescence, pH 4.5 | 230,000 tested, under 10 active; inconclusive = small, poorly fitted or top-dose-only inhibition, or a rising curve; inactive = flat fitted curve, though single readings scatter; no compound was filed as active;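 note: 0% = full activity with enzyme and -100% = basal without enzyme; dose as in the result columns while the protocol names 77 µM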
# Target sequence (P06280 whole entry, looked up): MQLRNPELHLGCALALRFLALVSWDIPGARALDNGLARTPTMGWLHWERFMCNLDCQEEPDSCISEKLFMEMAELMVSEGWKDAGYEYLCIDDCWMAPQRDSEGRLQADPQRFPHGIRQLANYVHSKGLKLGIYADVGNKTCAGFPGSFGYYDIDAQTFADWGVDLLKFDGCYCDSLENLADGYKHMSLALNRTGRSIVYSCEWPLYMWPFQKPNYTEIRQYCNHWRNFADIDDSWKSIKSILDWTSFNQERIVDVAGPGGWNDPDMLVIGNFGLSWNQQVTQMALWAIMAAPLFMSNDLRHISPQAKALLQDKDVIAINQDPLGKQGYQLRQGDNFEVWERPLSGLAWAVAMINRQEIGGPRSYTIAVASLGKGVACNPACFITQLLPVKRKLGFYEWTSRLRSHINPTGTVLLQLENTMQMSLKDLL
# miR-21 FLuc: miR-21 reporter, rising signal; HeLa miR-21 FLuc reporter, luciferase, 48 h; Potency, µM (doses to about 38.3 µM), without a hit: at the highest dose reporter change, positive = more light; 340,000 tested, under 10 active; AID 2288; active = well fitted rising curve with a large enough effect; inconclusive = small, poorly fitted or top-dose-only effect; inactive = no such curve, though single readings can be large or run the other way;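 note: % of control where 0% means no effect; miR-21 action dims this reporter so a rising signal means less miR-21 action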
#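 HeLa miR-21-FLuc reporter line, endogenous miR-21; 2000 cells/well in DMEM/10% FBS; compound titration up to ~40uM final, 48 h, 37 degree Celsius; luciferase detection reagent, 15 min lysis, CCD luminescence.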
# An asterisk follows results filed as active; ? = inconclusive; nt = no result given. An excerpt; the hit share may differ from the screen's.
SMILES,Rango release inh,Rango-impB inh,GLA inh pH 4.5,miR-21 FLuc
Cc1ccc(S(=O)(=O)Cc2ccc(C(=O)NC3CCCC3)o2)cc1,-6%,2.7%,nt,-2%
Cc1nc2ccccc2c(=O)n1/N=C/c1ccco1,1%,-3.5%,-6,-4%
COc1ccc(OCC(=O)OCC(=O)NCc2ccc(F)cc2)cc1,-11%,0.1%,10,-6%
CCOC(=O)C1(CCCc2ccccc2)CCN(C(=O)COC)CC1,-13%,-2.5%,-6,-4%
Cc1nn(Cc2ccc(Cl)cc2)c(C)c1NC(=O)c1ccc([N+](=O)[O-])cc1,-15%,-2.4%,-1,24%
Cc1cc(C)c(NC(=O)c2ccc3nccnc3c2)c(C)c1,5%,-3.2%,nt,nt
COc1cccc(NS(=O)(=O)c2ccc(-c3coc(C)n3)cc2)c1,-7%,1.0%,nt,6%
CC(C)c1ccc(CNn2cnnc2)cc1,7%,-3.7%,nt,-7%
CN1C(C(=O)Nc2ccccn2)=C(O)c2sc(Cl)cc2S1(=O)=O,19%,-1.7%,nt,-5%
O=C(CCl)NCc1cc(-c2ccc(Cl)cc2)no1,16%,-2.1%,1,?
COc1ccc(C2CC(=O)C3=C(C2)Nc2ccccc2N(C(=O)CCC(=O)O)C3c2ccc(F)cc2)cc1 (centres undefined),0%,0.7%,-2,4%
O=C(Nc1cccnc1Cl)c1cc2c(s1)-c1ccccc1OC2,-20%,?,nt,-44%

# Four entries from above, ordered by heavy-atom count, high to low:
SMILES,Rango release inh,Rango-impB inh,GLA inh pH 4.5,miR-21 FLuc
CCOC(=O)C1(CCCc2ccccc2)CCN(C(=O)COC)CC1,-13%,-2.5%,-6,-4%
O=C(Nc1cccnc1Cl)c1cc2c(s1)-c1ccccc1OC2,-20%,?,nt,-44%
Cc1cc(C)c(NC(=O)c2ccc3nccnc3c2)c(C)c1,5%,-3.2%,nt,nt
Cc1nc2ccccc2c(=O)n1/N=C/c1ccco1,1%,-3.5%,-6,-4%

# (further entries)
SMILES,Rango release inh,Rango-impB inh,GLA inh pH 4.5,miR-21 FLuc
CC(C)C(NC(=O)c1ccc(C(C)(C)C)cc1)C(=O)N1CCCC1 (centres undefined),-4%,?,nt,-11%
Cc1cc(C(=O)COC(=O)C2CC2)c(C)n1-c1ccc(F)cc1,0%,6.7%,-4,-33%
Cc1noc(C)c1CSc1ncnc2sc3c(c12)CCC3,nt,nt,7,-3%
Cc1ccccc1NC(=S)Nc1ccc2cn[nH]c2c1,-15%,-6.5%,0,-16%
CCOC(=O)c1c(NC(=O)Cn2nc(C(=O)O)c3ccccc3c2=O)sc(C)c1C,-9%,3.7%,?,-1%
Cc1ccc(C(=O)OCn2ncc(Cl)c(Cl)c2=O)cc1,0%,1.4%,-18,?
CC1CCCCC1NC(=O)/C(C#N)=C/c1ccccc1F (centres undefined),0%,0.9%,1,20%
O=C(NCCc1c[nH]c2ccccc12)c1cc2sccc2n1Cc1ccccc1,7%,-1.1%,-5,13%
COc1ccc(-n2c(SCC(=O)N3CCCCC3)nc3ccccc3c2=O)cc1,8%,-2.8%,nt,1%
COC(=O)C(C)(C)ONC(=O)Nc1ccccc1[N+](=O)[O-],-10%,3.2%,-7,-2%
COC(=O)c1[nH]c(C)c(/C(O)=C2\C(=O)C(=O)N(CCN(C)C)C2c2ccco2)c1C (centres undefined),0%,1.9%,-4,-4%
CCOc1ccc(NC(=O)NC2CCS(=O)(=O)C2)cc1 (centres undefined),-4%,2.3%,nt,0%
O=C(O)CCC(NC(=O)C(Cc1ccc2c(c1)OCO2)NC(=O)c1ccccc1)C(=O)O (centres undefined),nt,nt,7,1%
Cc1ccc(N2CCN(C(=O)C3CCCN(c4ncnc5c4nc4n5CCCCC4)C3)CC2)c(C)c1 (centres undefined),-8%,1.2%,nt,-5%
C/C(=N\OCC(=O)N/N=C/c1ccc(C)cc1O)c1cccs1,14%,?,-6,-3%
S=c1[nH]nc(Cn2nnc3ccccc32)n1-c1ccccc1,-12%,-3.5%,10,0%
Cc1ccc(C(=O)C[n+]2ccc3ccccc3c2)cc1,-15%,-1.7%,-23,-40%
OC(c1cccnc1)c1cccs1 (centres undefined),2%,3.3%,4,0%
CCOC(=O)/C(C#N)=C1/SC(CC)C(=O)N1c1ccc(C)cc1 (centres undefined),-16%,1.8%,-2,-15%
CCc1cc(=O)oc2cc(C)cc(OCC(=O)NC3CC3)c12,15%,1.3%,nt,6%
Cc1ccc(/C=C/C(=O)O)cc1S(=O)(=O)Nc1ccc2c(c1)OCO2,-2%,-5.1%,9,4%
CCCCCCNS(=O)(=O)c1ccc(Cl)s1,2%,-3.9%,-7,0%
COc1cccc(NC(=O)CN2C(=O)NC3(CCc4ccccc43)C2=O)c1 (centres undefined),12%,-1.8%,nt,nt
Clc1ccc2nc3c4ccccc4cnn3c2c1,20%,4.6%,2,-53%
Cc1ccc(S(=O)(=O)NCC(=O)N/N=C/c2ccc(Cl)cc2)cc1,8%,-5.6%,1,-12%
CN1CCN(S(=O)(=O)c2ccc(Oc3cccc(C(F)(F)F)c3)nc2)CC1,10%,-5.6%,nt,nt
O=C(NNC(=O)c1ccccc1C(=O)O)c1ccc(S(=O)(=O)N2CCCCC2)cc1,38%,6.6%,nt,-3%
O=C(Nc1ccnn1C1CCN(CC2CC=CCC2)CC1)c1ccccc1Cl (centres undefined),-4%,?,nt,2%
COc1cc(OC)cc(C(=O)NNC(=O)CCNS(=O)(=O)c2ccc(Br)cc2)c1,26%,-4.8%,nt,nt
COc1ccc(C(=O)OCC(=O)NC23CC4CC(CC(C4)C2)C3)c(OC)c1OC,-15%,0.6%,nt,nt
COCc1cc(C)nc(SCC(=O)Nc2ccc3[nH]c(=O)[nH]c3c2)c1C#N,9%,-0.5%,nt,-5%
Cn1c(SCc2nc3cc(C(=O)O)ccc3c(=O)[nH]2)nnc1C(F)(F)F,-7%,-1.2%,4,1%
c1cc2c(cc1-c1csc(NNC3=NCCCCC3)n1)OCCO2,-9%,7.5%,-2,-37%
CCOc1cc(C(=O)NCc2nnc(SCC(=O)OC)n2C)cc(OCC)c1OCC,3%,-0.6%,3,0%
O=C(Nc1ccc(-c2nnc3n2CCCCC3)cc1)c1ccco1,-3%,3.6%,5,-8%
Cc1ccc2scc(CN3CCCC3)c2c1,-10%,-2.2%,nt,nt

# 7 compounds already listed, arranged by their value in miR-21 FLuc, low to high:
smiles	miR-21 FLuc
CC(C)C(NC(=O)c1ccc(C(C)(C)C)cc1)C(=O)N1CCCC1 (centres undefined)	-11%
O=C(Nc1ccc(-c2nnc3n2CCCCC3)cc1)c1ccco1	-8%
Cc1ccc(N2CCN(C(=O)C3CCCN(c4ncnc5c4nc4n5CCCCC4)C3)CC2)c(C)c1 (centres undefined)	-5%
COC(=O)c1[nH]c(C)c(/C(O)=C2\C(=O)C(=O)N(CCN(C)C)C2c2ccco2)c1C (centres undefined)	-4%
COc1ccc(C2CC(=O)C3=C(C2)Nc2ccccc2N(C(=O)CCC(=O)O)C3c2ccc(F)cc2)cc1 (centres undefined)	4%
O=C(NCCc1c[nH]c2ccccc12)c1cc2sccc2n1Cc1ccccc1	13%
Cc1nn(Cc2ccc(Cl)cc2)c(C)c1NC(=O)c1ccc([N+](=O)[O-])cc1	24%

# The listing continues:
SMILES,Rango release inh,Rango-impB inh,GLA inh pH 4.5,miR-21 FLuc
COc1ccc(NC(=S)N(CCCN2CCCCCC2)Cc2cccs2)cc1,-10%,-1.3%,-4,7%
O=[N+]([O-])c1ccccc1N=Nc1ccc(O)cc1O,1%,0.8%,nt,nt
Cc1cc(=O)cc(C)n1-c1ccc(Br)cc1,-14%,4.5%,4,-2%
COc1ccc(NC(=O)CCCn2cnc3ccccc3c2=O)cc1,-15%,-1.7%,nt,-12%
COc1cccc2c(Nc3ccccc3C)cc(C)nc12,-10%,0.2%,nt,18%
COC(=O)c1ccc(COc2ccccc2/C=N/NC(=O)c2cccnc2)cc1,2%,-13%,-9,-16%
O=C(CSC1=NCCS1)Nc1nc2c(s1)CCCC2,-14%,2.0%,-6,-39%
CC(NC(=S)Nc1c(Br)cccc1OC(F)F)C(C)(C)C (centres undefined),-1%,4.5%,-2,-6%
O=C(COC(=O)CSc1cc(Cl)ccc1Cl)Nc1ncc(C(F)(F)F)cc1Cl,-1%,9.1%,-2,1%
CCn1c(SCC(N)=O)nnc1-c1ccc(S(=O)(=O)N2CCN(C)CC2)cc1,-8%,2.1%,1,-5%
Cc1cnc(NC(=O)c2ccc3ncsc3c2)s1,6%,2.7%,nt,nt
CCCCN(C(=O)C1CCC1)c1c(N)n(Cc2ccccc2)c(=O)[nH]c1=O,-13%,-1.9%,nt,nt
O=C(Nc1ccc(SC(F)F)cc1)C1=COCCO1,6%,-8.3%,-7,-40%
CC(Cc1cccs1)N(Cc1ccc(Cl)cc1)C(=O)c1ccncc1 (centres undefined),5%,4.8%,nt,-4%
C=CCN(c1ccccc1OC)S(=O)(=O)c1cccc(C(=O)OCC(=O)N2CCOCC2)c1,5%,1.6%,nt,nt
COC(=O)CN(c1ccccn1)S(=O)(=O)c1ccccc1,-15%,-1.3%,4,0%
COc1ccccc1CNC(=O)COC(=O)c1cc(=O)c2ccccc2o1,-3%,-3.8%,nt,nt
Cc1cccc(-c2ocnc2C(=O)Nc2ccccc2C(=O)N2CCCC2)c1,-14%,-0.2%,nt,29%
COc1ccc(C(=O)CN2C(=O)NC(C)(c3ccc(C)cc3)C2=O)cc1OC (centres undefined),-3%,-2.4%,-1,-14%
COCOc1cc(O)c(C(=O)/C=C/c2ccccc2)c(OCOC)c1,2%,6.9%,nt,nt
COC(=O)CCn1nc(-c2ccc(Cl)cc2)c2ccccc2c1=O,7%,2.9%,-3,0%
CC(C)(C)c1ccc(/C=C/C(=O)N2CCc3ccccc3C2)cc1,-13%,4.1%,-2,-11%
COC(=O)n1ccc(C(=O)Nc2ccccc2F)n1,-9%,1.2%,-1,-38%
COc1ccc(C2(C)NC(=O)NC2=O)cc1OC (centres undefined),3%,3.5%,nt,-3%
